NOMO-1 viab – STK33 inhibitor candidate reducing NOMO-1 cell viability; NOMO-1 AML viability, CellTiter-Glo luminescence, 72 h; inhibition, % (no concentration beside the values); actives 7.5% (n = 37,000);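 active means most replicates above 80%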;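 further: wells of about 30 µL received 25 nL stock; 0% = median of vehicle wells and 100% = reference inhibitor level; the first replicate is given; inactives centre near 10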
Active calls of the source: *. The list is partial. The share of hits here may be higher or lower than overall.

SMILES	NOMO-1 viab
C[C@@H]1CN([C@H](C)CO)C(=O)c2cccc(NS(=O)(=O)c3cccs3)c2O[C@H]1CN(C)CC1CC1	-24
C[C@@H]1CN([C@H](C)CO)C(=O)c2cc(NC(=O)C3CC3)ccc2O[C@H]1CN(C)C(=O)Nc1ccc2c(c1)OCO2	36
COc1ccc(NC(=O)N(C)C[C@H]2Oc3c(NC(=O)c4ccncc4)cccc3C(=O)N([C@@H](C)CO)C[C@@H]2C)cc1	-16
C[C@H]1C(=O)N2c3ccccc3[C@@]3(O)C[C@@H]4C(=O)N[C@@](C)(c5nc6ccccc6c(=O)n54)N1[C@@H]23	21
CCCCc1c(C)nc(-c2ccc(Cl)cc2)[nH]c1=O	-13
C[C@@H]1CN([C@@H](C)CO)C(=O)c2cccc(NS(=O)(=O)c3cn(C)cn3)c2O[C@@H]1CN(C)Cc1ccncc1	11
Cc1noc(C)c1NC(=O)N(C)C[C@H]1Oc2ccc(NC(=O)Nc3ccc(C(F)(F)F)cc3)cc2C(=O)N([C@@H](C)CO)C[C@@H]1C	17
C[C@@H]1CN([C@H](C)CO)C(=O)c2cc(NS(=O)(=O)c3ccccc3)ccc2O[C@@H]1CN(C)Cc1ccc(C(F)(F)F)cc1	7
C[C@@H]1CN([C@H](C)CO)C(=O)c2cc(NC(=O)CCN3CCOCC3)ccc2O[C@@H]1CN(C)Cc1ccc(-c2ccccc2)cc1	41
COc1ccc(S(=O)(=O)Nc2ccc3c(c2)C(=O)N([C@H](C)CO)C[C@@H](C)[C@@H](CN(C)S(C)(=O)=O)O3)cc1	-10
C[C@H](CO)N1C[C@H](C)[C@@H](CN(C)S(=O)(=O)c2ccccc2)Oc2ccc(NC(=O)CCCCCC(=O)Nc3ccccc3N)cc2C1=O	11
COc1cccc2cc(C(=O)N3CCN(CCN4C(=O)c5cccc6cccc(c56)C4=O)CC3)c(=O)oc12	44
C[C@H]1CN([C@@H](C)CO)C(=O)Cc2cc(NS(=O)(=O)c3ccc(F)cc3)ccc2O[C@H]1CN(C)Cc1ccncc1	9
C[C@@H]1CN([C@@H](C)CO)C(=O)Cc2cc(NC(=O)Cc3ccccc3)ccc2O[C@@H]1CN(C)Cc1ccc2c(c1)OCO2	5
C[C@@H]1CN([C@H](C)CO)C(=O)c2cccc(NC(=O)c3nc4ccccc4s3)c2O[C@@H]1CN(C)Cc1ccc(C(=O)O)cc1	-7
Cc1cccc(NC(=O)c2cnn(-c3ccccc3)c2NC(=O)c2ccco2)c1	21
C[C@H](CO)N1C[C@H](C)[C@@H](CN(C)S(=O)(=O)c2cccs2)Oc2ccc(N(C)C)cc2C1=O	-14
COc1ccc(NC(=O)Nc2ccc3c(c2)C(=O)N([C@H](C)CO)C[C@H](C)[C@@H](CN(C)C(=O)Nc2ccc(C(F)(F)F)cc2)O3)cc1	-7
Cc1noc(C)c1NC(=O)Nc1cccc2c1O[C@H](CN(C)S(=O)(=O)c1ccc(F)cc1)[C@H](C)CN([C@@H](C)CO)C2=O	36
C[C@H]1CN([C@@H](C)CO)C(=O)c2cccc(NC(=O)Nc3cccc4ccccc34)c2O[C@@H]1CN(C)C(=O)Nc1ccc(F)cc1	23

2 of these compounds, reformatted.
SMILES,NOMO-1 viab
COc1cccc2cc(C(=O)N3CCN(CCN4C(=O)c5cccc6cccc(c56)C4=O)CC3)c(=O)oc12,44
C[C@H]1CN([C@@H](C)CO)C(=O)Cc2cc(NS(=O)(=O)c3ccc(F)cc3)ccc2O[C@H]1CN(C)Cc1ccncc1,9

(further entries)
SMILES	NOMO-1 viab
NC(=NC(=O)c1ccc(OCC(F)(F)F)nc1)c1ccc(C(F)(F)F)cc1	9
COc1ccc(NC(=O)N(C)C[C@H]2Oc3ccc(NC(=O)Cn4cnnn4)cc3CC(=O)N([C@@H](C)CO)C[C@@H]2C)cc1	-14
C[C@H]1CN([C@@H](C)CO)C(=O)c2cccc(NC(=O)Nc3ccccc3)c2O[C@@H]1CN(C)C(=O)Nc1ccc2c(c1)OCO2	6
CC(C)NC(=O)Nc1ccc2c(c1)CC(=O)N([C@@H](C)CO)C[C@@H](C)[C@@H](CN(C)Cc1ccc(Cl)c(Cl)c1)O2	20
CS(=O)(=O)N(CC(=O)Nc1cccc(Cl)c1Cl)c1cccc(F)c1	40
C[C@@H]1CCCCO[C@@H](CN(C)C(=O)CCCN(C)C)[C@@H](C)CN([C@H](C)CO)C(=O)c2cc(NC(=O)Nc3ccccc3)ccc2O1	-18
O=C(CC(C(=O)N1CCc2ccccc21)C(=O)N1CCc2ccccc21)c1ccccc1	30
C[C@@H]1CCCCO[C@H](CN(C)S(=O)(=O)c2cn(C)cn2)[C@@H](C)CN([C@H](C)CO)C(=O)c2cc(NS(C)(=O)=O)ccc2O1	0
Cc1ccc(-n2c(Cn3c(-c4ccccn4)nc4ccccc43)n[nH]c2=S)c(Br)c1	-15
CC(=O)C1=C(C)Nc2ncnn2C1c1ccccc1[N+](=O)[O-] (configuration not stated)	-11
CC(C)[C@H](NC(=O)[C@H](C)N(C)C)C(=O)N1CC[C@@H]2Oc3ccc(cc3)/C=C\NC(=O)[C@H](Cc3ccccc3)NC(=O)C21 (some centres not stated)	11
Cc1noc(C)c1S(=O)(=O)Nc1ccc2c(c1)C(=O)N([C@@H](C)CO)C[C@H](C)[C@H](CN(C)Cc1ccc(-c3ccccc3)cc1)O2	12
CC1(C)C[C@H]2C3=CCC4[C@@]5(C)CC[C@H](O[C@@H]6O[C@H](CO)[C@@H](O)[C@H](O)[C@H]6O)C(C)(C)C5CC[C@@]4(C)[C@]3(C)CC[C@@]2(C(=O)O[C@@H]2O[C@H](CO)[C@@H](O)[C@H](O)[C@H]2O)CC1O (some centres not stated)	-5
COc1ccc(CN(C)C[C@@H]2OCCCC[C@@H](C)Oc3ccc(NC(=O)Nc4ccc(C(F)(F)F)cc4)cc3C(=O)N([C@H](C)CO)C[C@@H]2C)cc1	113*
Cc1cc(Br)cnc1N=CN(C)C	0
Cc1ccccc1-c1noc(CCC(=O)Nc2ccc(Cl)cc2)n1	-18
O=C(CSc1nnc(-c2cccs2)n1-c1ccccc1)N1CCOCC1	13
Cc1noc(C)c1NC(=O)N(C)C[C@H]1Oc2c(NC(=O)NC(C)C)cccc2C(=O)N([C@H](C)CO)C[C@@H]1C	2
COc1ccc(S(=O)(=O)N(C)C[C@@H]2Oc3c(NS(=O)(=O)c4ccc(C)cc4)cccc3C(=O)N([C@@H](C)CO)C[C@@H]2C)cc1	14
CCOC(=O)c1sc(N2C(=O)C(=O)C(C(=O)c3ccc(OC)c(C)c3)C2c2ccco2)nc1C (configuration not stated)	-2

Retrieved by compound from the entries so far, three records:
SMILES	NOMO-1 viab
COc1cccc2cc(C(=O)N3CCN(CCN4C(=O)c5cccc6cccc(c56)C4=O)CC3)c(=O)oc12	44
Cc1ccccc1-c1noc(CCC(=O)Nc2ccc(Cl)cc2)n1	-18
Cc1cccc(NC(=O)c2cnn(-c3ccccc3)c2NC(=O)c2ccco2)c1	21

Structural class, the entries above with a CF3 group.
SMILES	NOMO-1 viab
Cc1noc(C)c1NC(=O)N(C)C[C@H]1Oc2ccc(NC(=O)Nc3ccc(C(F)(F)F)cc3)cc2C(=O)N([C@@H](C)CO)C[C@@H]1C	17
C[C@@H]1CN([C@H](C)CO)C(=O)c2cc(NS(=O)(=O)c3ccccc3)ccc2O[C@@H]1CN(C)Cc1ccc(C(F)(F)F)cc1	7
COc1ccc(NC(=O)Nc2ccc3c(c2)C(=O)N([C@H](C)CO)C[C@H](C)[C@@H](CN(C)C(=O)Nc2ccc(C(F)(F)F)cc2)O3)cc1	-7
NC(=NC(=O)c1ccc(OCC(F)(F)F)nc1)c1ccc(C(F)(F)F)cc1	9
COc1ccc(CN(C)C[C@@H]2OCCCC[C@@H](C)Oc3ccc(NC(=O)Nc4ccc(C(F)(F)F)cc4)cc3C(=O)N([C@H](C)CO)C[C@@H]2C)cc1	113*

(more compounds)
SMILES	NOMO-1 viab
C[C@@H]1CN([C@@H](C)CO)C(=O)c2cc(NC(=O)Nc3ccccc3)ccc2O[C@@H]1CN(C)Cc1ccc(Cl)c(Cl)c1	112*
COc1ccc(NC(=O)N(C)C[C@@H]2Oc3ccc(NS(=O)(=O)c4ccc(OC)cc4)cc3C(=O)N([C@@H](C)CO)C[C@H]2C)cc1	-14
C[C@@H]1CN([C@@H](C)CO)C(=O)c2cc(NS(=O)(=O)c3ccccc3)ccc2O[C@H]1CN(C)C(=O)Nc1ccc(F)cc1	7
C[C@@H]1CN([C@@H](C)CO)C(=O)Cc2cc(NC(=O)Cc3ccccc3)ccc2O[C@@H]1CN(C)Cc1ccncc1	-20
C[C@H](CO)N1C[C@H](C)[C@H](CN(C)C(=O)Nc2ccccc2)Oc2ccc(NC(=O)NC3CCCCC3)cc2CC1=O	6
COc1cc(/C=C2\Oc3cc(O)ccc3C2=O)ccc1O	-2
CNC[C@@H]1Oc2c(NC(=O)c3cc(C)nn3C)cccc2C(=O)N([C@@H](C)CO)C[C@H]1C	3
C[C@@H]1CN([C@@H](C)CO)C(=O)c2cc(NC(=O)Nc3ccc4c(c3)OCO4)ccc2O[C@@H]1CN(C)S(=O)(=O)c1ccc(F)cc1	30
C[C@@H]1CN([C@H](C)CO)C(=O)Cc2cc(NC(=O)NC3CCCCC3)ccc2O[C@@H]1CN(C)Cc1ccc(Oc2ccccc2)cc1	111*
CCOC(=O)CN(C#N)c1nc(C)cc(C)n1	35
Cc1noc(C)c1NC(=O)N(C)C[C@@H]1Oc2ccc(NC(=O)CCCCCC(=O)Nc3ccccc3N)cc2C(=O)N([C@@H](C)CO)C[C@H]1C	9
Cc1ccc(S(=O)(=O)Nc2cccc3c2O[C@@H](CN(C)Cc2ccc(Oc4ccccc4)cc2)[C@@H](C)CN([C@H](C)CO)C3=O)cc1	86*
CNC[C@@H]1Oc2ccc(N(C)C)cc2C(=O)N([C@@H](C)CO)C[C@@H]1C	19
C[C@@H]1CN([C@@H](C)CO)C(=O)c2cc(NC(=O)NC3CCCCC3)ccc2O[C@@H]1CN(C)C(=O)Nc1ccc2c(c1)OCO2	1
N#CCCN(CCC#N)C(=O)c1ccco1	27
COc1ccc(NC(=O)c2ccco2)c(NC(=O)CSc2ccc(Cl)cc2)c1	3
COc1ccc(NC(=O)N(C)C[C@H]2Oc3ccc(NC(=O)NC4CCCCC4)cc3CC(=O)N([C@@H](C)CO)C[C@@H]2C)cc1	4
COC(=O)C[C@@H]1C(C(=O)O)=CO[C@@H](O[C@@H]2O[C@H](CO)[C@@H](O)[C@H](O)[C@H]2O)/C1=C\COC(=O)/C=C/c1ccccc1	-8
COC(=O)c1ccc2ccccc2n1	-4
Cc1ccc(S(=O)(=O)N(C)C[C@@H]2OCCCC[C@@H](C)Oc3ccc(NC(=O)Nc4ccc(C(F)(F)F)cc4)cc3C(=O)N([C@H](C)CO)C[C@@H]2C)cc1	53
O=C(COc1ccc(S(=O)(=O)N2CCOCC2)cc1)Nc1ccccc1	-1
C[C@H]1CN([C@@H](C)CO)C(=O)Cc2cc(NC(=O)Nc3cccc4ccccc34)ccc2O[C@H]1CN(C)S(C)(=O)=O	-19
Cc1ccc(S(=O)(=O)Nc2ccc3c(c2)CC(=O)N([C@H](C)CO)C[C@@H](C)[C@@H](CN(C)Cc2ccncc2)O3)cc1	-16
NC(=O)c1nnn(Cc2ccccc2)c1N	1
C[C@@H]1CN([C@@H](C)CO)C(=O)Cc2cc(NC(=O)Cc3cn(C)c4ccccc34)ccc2O[C@@H]1CN(C)Cc1ccc(-c2ccccc2)cc1	40
O=C(CSc1nc2ccccc2s1)OCN1C(=O)c2ccccc2C1=O	17
C[C@H]1CN([C@@H](C)CO)C(=O)c2cccc(NC(=O)C3CC3)c2O[C@@H]1CN(C)S(=O)(=O)c1cn(C)cn1	11
C[C@H]1CN([C@@H](C)CO)C(=O)c2cc(NS(=O)(=O)c3cn(C)cn3)ccc2O[C@@H]1CN(C)S(C)(=O)=O	-22
O=C(Cn1nc2n(c1=O)-c1ccccc1SC2)NC(=O)Nc1ccccc1	48
C[C@@H]1CN([C@H](C)CO)C(=O)c2cc(NS(=O)(=O)c3cccs3)ccc2O[C@@H]1CN(C)C	2
C[C@@H]1CN([C@H](C)CO)C(=O)Cc2cc(NC(=O)Cc3ccccc3)ccc2O[C@H]1CN(C)S(=O)(=O)c1ccc(Cl)cc1	-13
C[C@@H]1CN([C@H](C)CO)C(=O)Cc2cc(NS(=O)(=O)c3cn(C)cn3)ccc2O[C@H]1CN(C)C(=O)Nc1ccc(F)cc1	8
Cn1c(-c2ccc(Cl)cc2)cs/c1=N\C(=S)NCCc1ccccc1	19
O=C(COc1ccccc1Cl)Nc1ccc([N+](=O)[O-])cc1O	30
CCOC(=O)c1c(NC(=O)C2CC(c3cccc(Br)c3)=NO2)sc(C)c1C (configuration not stated)	1
C[C@@H]1CN([C@H](C)CO)C(=O)c2cccc(NS(=O)(=O)c3ccc(Cl)cc3)c2O[C@H]1CN(C)Cc1ccc(C(F)(F)F)cc1	23
Cc1ccc(-c2nc3ccccc3o2)cc1NC(=O)COc1c(C)cc(Cl)cc1Cl	41
C[C@@H]1CCCCO[C@@H](CN(C)C(=O)Nc2ccc(F)cc2)[C@@H](C)CN([C@H](C)CO)C(=O)c2cc(NC(=O)c3ccncc3)ccc2O1	16
CCc1c(C)sc(NC(=O)c2ccc(Cn3nc(C)c(Cl)c3C)o2)c1C(N)=O	47
C[C@@H]1CN([C@@H](C)CO)C(=O)Cc2cc(NC(=O)Nc3ccc(F)cc3)ccc2O[C@@H]1CN(C)Cc1ccncc1	58
CC(=O)O[C@H]1C[C@@H](OC(C)=O)C(C)(C)C2C[C@@H](O)[C@]3(C)C(CC[C@@]4(C)[C@H](c5ccoc5)OC(=O)C5OC543)[C@]21C (some centres not stated)	1
Cc1ccnc(NC(c2cccc([N+](=O)[O-])c2)c2ccc3ccc(C)nc3c2O)c1 (configuration not stated)	101*
C[C@H](CO)N1C[C@H](C)[C@@H](CN(C)C(=O)Nc2ccc3c(c2)OCO3)Oc2c(NC(=O)C3CCCCC3)cccc2C1=O	-5
